Source: PubChem
TRPML1 ag: activates the human TRPML1 channel; Q9GZU1; TRPML1-expressing cells, Ca2+ dye fluorescence, FDSS; host cell line not named in the record; reference of the full effect not given here; activation, % (no concentration beside the values); hit rate 0.12% among 410,000; AID 624414; in the data active = activation above about 50%; inconclusive = about 30% to 50%; inactive = below about 30%; also: 0% is about no effect; the text of the record puts the active cut at 80%
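TRPML1-DL cells, Tet-induced overnight (~16 h, 37 degrees C), loaded 45-90 min at room temperature with Ca8 no-wash calcium dye plus quencher. FDSS fluorescence: 10 s baseline, compound pin-transfer, 110 s agonist read, then EC80 54-4 (4uM final) and 110 s antagonist read.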
TRPML1 inh: blocks the human TRPML1 channel; hit rate 0.02% among 390,000; Q9GZU1; TRPML1-inducible cells, Ca2+ dye fluorescence, FDSS; stronger effect = lower value; inhibition of EC80 agonist-evoked calcium signal; activity change, negative = inhibition, % (concentration not given with the values); in the data active means activity change below about -50%; inconclusive means about -30% to -50%; inactive means above about -30%;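 also: stimulus is agonist 54-4 at its EC80 concentration; % is scaled to controls: 0 for no effect and ±100 for the full control effect; compound concentration not given in the record; the text of the record puts the active cut at -80%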
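Tet-induced TRPML1-DL cells loaded with Ca8 no-wash calcium dye were read kinetically on FDSS. Compound addition was followed by EC80 agonist 54-4 (4 uM final); inhibition was read over 110 s.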
PINK1 modulator: changes PINK1 expression. PINK1 immunofluorescence, high-content cytometry, 24 h. Potency, µM (series often up to 76.6 µM), inactives show at the highest dose activation (PINK1 increase), most hits filed as activators. hit rate 0.2% among 410,000. AID 624263; active = well fitted activation curve with a large enough effect; inconclusive = small, poorly fitted or top-dose-only effect; inactive = flat fitted curve, though single readings scatter; cell line not stated here;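 also: potency is read from the fitted curve at half-maximal effect; % of control where 0% means no effect; nearly all actives have a fitted effect of over 65% in size; a mitochondrial uncoupler was the plate control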
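Stable cell line, 250 cells/well, 12 h attachment; compounds pinned at 5 concentrations, 24 h; CCCP control. Fixed with nuclear dye, primary antibodies 12 h at 10 degrees C, secondary plus cell stain; laser-scanning cytometer read.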
D2 ag: activates the human D2 dopamine receptor; DiscoveRx PathHunter D2 beta-arrestin, luminescence, 90 min; 100% = 57 uM dopamine signal; hit rate 0.084% among 360,000; activation, % (concentration not given with the values); in the data active = activation above about 40%; inconclusive = about 15% to 40%; inactive = below about 15%; also: compound concentration not given in the record; the text of the record calls up to 30% inactive
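Agonist mode: compounds alone added to overnight-plated D2 PathHunter cells for 90 min at 37 C, with 57 uM final dopamine (EC100) defining full response. Beta-arrestin recruitment detected by chemiluminescent reagent, read after 1 h at ambient temperature.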
D2 PAM: positive allosteric modulators of human D2 dopamine receptor; P14416; DiscoveRx D2 beta-arrestin cells, luminescence, 90 min; 100% = 57 uM dopamine signal; potentiation, % (test concentration not listed); hit rate 0.23% among 360,000; AID 624464; active = potentiation of 50% or more; inconclusive = 30% to 50%; inactive = 30% or less;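 also: compound concentration not given in the record; tested on top of an EC20 dose of dopamine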
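PathHunter beta-arrestin assay in DiscoveRx D2 cells. Compounds were added with an EC20 of dopamine (50 nM final) for 90 min at 37 deg C. Luminescence was read 1 h after detection reagent, with 57 uM dopamine as the EC100 control.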
Six1-Eya2 blk: blocks human Six1 binding to Eya2 | AlphaScreen GST-Six1/His-Eya2 binding, biochemical; stronger effect = lower value; control for the full effect not named in the record | hit rate 0.56% among 360,000 | Q15475+O00167 | activity change, % (test concentration not listed) | AID 651725; in the data active = activity change below about -65%; inconclusive = about -30% to -65%; inactive = above about -30%; also: % is scaled to controls: 0 for no effect and ±100 for the full control effect; compound concentration not given in the record
Target sequence (O00167 whole entry, looked up): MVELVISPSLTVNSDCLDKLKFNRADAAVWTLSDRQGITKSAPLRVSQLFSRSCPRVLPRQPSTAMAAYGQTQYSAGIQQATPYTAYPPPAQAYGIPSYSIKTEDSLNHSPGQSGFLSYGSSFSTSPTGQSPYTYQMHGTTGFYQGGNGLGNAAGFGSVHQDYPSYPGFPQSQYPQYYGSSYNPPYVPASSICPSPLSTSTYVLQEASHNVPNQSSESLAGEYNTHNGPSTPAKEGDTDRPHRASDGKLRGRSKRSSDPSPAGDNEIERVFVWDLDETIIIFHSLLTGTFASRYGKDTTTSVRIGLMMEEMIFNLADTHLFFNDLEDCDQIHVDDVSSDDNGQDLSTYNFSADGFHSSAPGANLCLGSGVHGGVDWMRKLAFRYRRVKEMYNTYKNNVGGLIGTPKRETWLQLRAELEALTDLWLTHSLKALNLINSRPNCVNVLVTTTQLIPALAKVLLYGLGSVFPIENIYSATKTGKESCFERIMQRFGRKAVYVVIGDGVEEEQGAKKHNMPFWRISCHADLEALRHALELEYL
Target sequence (Q15475 whole entry, looked up): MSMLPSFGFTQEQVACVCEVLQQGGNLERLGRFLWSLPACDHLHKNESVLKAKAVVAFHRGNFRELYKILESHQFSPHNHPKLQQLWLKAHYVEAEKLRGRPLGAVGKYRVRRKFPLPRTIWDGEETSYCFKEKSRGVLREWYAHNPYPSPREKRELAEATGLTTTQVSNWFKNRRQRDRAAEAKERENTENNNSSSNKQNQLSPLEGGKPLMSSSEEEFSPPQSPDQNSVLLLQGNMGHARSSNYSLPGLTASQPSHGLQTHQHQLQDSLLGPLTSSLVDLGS
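Homogeneous AlphaScreen proximity assay pairing GST-Six1 with His-tagged Eya2 (added as 5X mix: 250 nM and 500 nM) in 50 mM Tris pH 8.0, 300 mM NaCl, 1 mM TCEP. Glutathione donor and nickel acceptor beads; 1 h, 37 °C, dark.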
The depositor's hits bear a star; ? = inconclusive; nt = no result given; [ ] = remark or other dose.

Molecule,Six1-Eya2 blk,TRPML1 ag,PINK1 modulator,D2 PAM,TRPML1 inh,D2 ag
C[C@]12CC[C@H](O)CC1=CCC1C2CC[C@@]2(C)C1CCC21OCCO1 (stereo partly specified),5,-1.2,2.3%,7,15,5.2
Cc1ccc(N2CC(C(=O)OCc3ccccc3)CC2=O)cc1 (stereo unspecified),13,-0.3,-1.8%,2,10,-2.6
CC(C)Cc1nc(SCC(=O)NCC2CCCO2)c2c(=O)n(C)c(=O)n(C)c2n1 (stereo unspecified),2,-0.7,1.3%,-6,9,-0.6
COC(=O)C(C)Sc1ncnc2c1c(-c1ccccc1)cn2-c1ccc(F)cc1 (stereo unspecified),nt,0.4,0.7%,nt,-12,nt
CC(C)C[C@@H](C(=O)NCc1ccco1)N1C(=O)N2CCc3c([nH]c4ccccc34)[C@@]2(C)C1=O,-18,nt,1.5%,-42,nt,1.1
Cc1ccc(NC(=S)c2nc3ccccc3[nH]2)cc1,-81*,0.5,29%,12,0,-4.3
CC(C)N(Cc1nc(-c2ccccc2)no1)C(=O)C(Cl)(Cl)Cl,5,3.9,2.8%,7,29,1.9
CCC(=O)N1N=C(c2ccc(C)cc2)CC1c1ccco1 (stereo unspecified),-12,6.8,2.3%,-1,40,0.2
CC(C)c1ccc(/C=C/c2ccc(=O)n(C)n2)cc1,4,-0.5,-0.3%,2,3,-3.9
CC1CCc2cc(F)cc3c(O)c(C(=O)NCC4CCCO4)c(=O)n1c23 (stereo unspecified),10,6.6,-1.7%,-18,5,-3.1
C=CCCC(=O)N1CCC(Oc2cccc(C(=O)NCc3ccccn3)c2)CC1,5,1.0,-0.5%,19,-9,-12
CCOc1ccc2nc(N3CCCC(C(=O)Nc4cc(Cl)c(OC)cc4OC)C3)sc2c1 (stereo unspecified),nt,0.9,2.3%,nt,3,nt
Cc1nn(-c2ccccc2)c(C)c1C(=O)NCCc1ccc(Cl)cc1,4,-0.3,1.2%,-1,33,-1.1
Cc1cccc(CCNS(=O)(=O)c2ccc3c(c2)CCN3C(=O)CCC(=O)O)c1,-5,-1.0,-0.2%,-2,-3,-2.9
Clc1ccc(CN(Cc2ccc(Cl)cc2)c2nn[nH]n2)cc1,3,0.3,-1.7%,2,10,-0.9
O=Cc1cn(CC(=O)N2CCCCC2)c2ccccc12,0,0.3,-0.9%,-5,-7,-1.5
Cc1ccc(S(=O)(=O)N2CCN(C(=O)C3=COCCO3)CC2)cc1C,8,0.5,-0.9%,5,9,-0.2
COc1cccc(Sc2ccccc2CN(C)C)c1,-2,-0.7,2.9%,-14,36,-5.4
CCOC(=O)c1c(-c2ccccc2)oc2ccc(N(C(C)=O)S(=O)(=O)c3ccccc3)cc12,nt,-1.2,0.5%,nt,6,nt
CCCCCCn1c(SCC(=O)OC)nc2c1c(=O)[nH]c(=O)n2C,-2,0.1,-1.6%,3,20,-1.8
O=c1cc(-c2ccco2)oc2ccc(Cl)cc12,-3,-1.4,1.1%,3,21,-1.9
COc1cccc(CNS(=O)(=O)c2ccc(-n3cnnn3)c(C)c2)c1,4,-1.1,2.1%,-10,0,-5.3
C/C(=N\NC(=O)COc1c(C)cccc1C)c1cccs1,1,0.0,5.8%,4,15,-3.7
CCOC(=O)C1(Cc2ccccc2)CCN(C2Cc3ccccc3C2)CC1,-7,0.5,10%,-11,16,-0.1
Cc1cc(-c2ccccc2)nc(=O)[nH]1,-10,-0.3,-4.0%,3,-7,-3.6
O=C(NCCCN1CCN(c2ccccc2)CC1)c1sc2ncccc2c1-n1cccc1,nt,-0.8,0.8%,nt,-4,nt
CN(CC(=O)Nc1ccc(F)cc1)C(=O)CN1C(=O)NC2(CCCc3ccccc32)C1=O (stereo unspecified),3,0.4,1.5%,-6,-14,-0.7
CC(=O)c1ccc(NC(=O)C(C)NCc2ccc(Cl)cc2)cc1 (stereo unspecified),1,0.7,0.2%,-12,14,-19
CCOC(=O)C(CC(=O)c1ccccc1)CC(=O)c1ccccc1,15,2.3,-0.9%,5,-9,1.9
O=[N+]([O-])c1ccc(C(O)CN2CCN(c3ccccc3)CC2)cc1 (stereo unspecified),-7,-0.1,5.0%,-4,-16,?
CCOc1cccc(-c2c(C(=O)N/N=C/c3ccc(C)o3)nnn2-c2nonc2N)c1,-11,-0.6,2.0%,-1,1,-2.8
O=c1[nH]nc(-c2cccs2)c2ccccc12,-8,1.9,-1.4%,-5,-24,3.2
COc1cc(/C=N/NC(=O)/C(=C/c2ccccc2)CCO)ccc1O,-9,1.1,0.2%,-30,8,-0.3
CCC1Oc2ccc(C)cc2N(CC(=O)N(Cc2cccnc2)Cc2ccc(C)o2)C1=O (stereo unspecified),-8,0.4,-1.2%[38.3 µM],-7,-28,-3.1
CCc1[nH]nc2c1C(c1ccncc1)C(C#N)=C(N)O2 (stereo unspecified),14,-0.4,1.3%[38.3 µM],-4,-26,-0.4
NN=C(c1ccccc1)c1ccccc1,3,-0.8,-2.0%,-5,-8,-2.8
O=C(COC(=O)CC1CC2CCC1C2)Nc1ccc(Cl)c(S(=O)(=O)N2CCOCC2)c1 (stereo unspecified),-5,0.5,21%,-1,4,0.9
S=C(NCC1CCCO1)Nc1ccc(Cl)c(Cl)c1 (stereo unspecified),-3,-0.1,4.5%,-14,10,3.2
CC(C)Oc1ccc(CNC(=O)Cn2ncn3nc(-c4cccs4)cc3c2=O)cc1,nt,1.2,3.1%,nt,-12,nt
CC(C)Oc1ccc(C2CC(=O)N(c3cccc(/C=C/C(=O)O)c3)C2=O)cc1 (stereo unspecified),-2,-0.5,0.3%,8,-11,0.9
CCOC(=O)c1ccc(NC(=O)CSc2ncc(S(=O)(=O)c3ccc(C)c(Cl)c3)c(=O)[nH]2)cc1,nt,1.8,-0.2%,nt,-12,nt
CC12CCC(C(=O)Nc3ccc(SC(F)F)cc3)(CC1=O)C2(C)C (stereo unspecified),-6,-0.4,4.5%[38.3 µM],18,-9,1.3
C=CCn1c(SCC(=O)Nc2cccc(S(=O)(=O)N(C)c3ccccc3)c2)nnc1C1CC1,4,0.0,-1.6%,-2,1,-3.5
CN1CCN(S(=O)(=O)c2cccc(C(=O)N(C)C(c3ccccc3)c3ccccc3)c2)CC1,1,1.1,-0.2%,-9,13,-2.0
COc1ccc(/C=N/NC(=O)CCn2cnc3ccccc32)cc1,-2,-0.5,1.7%,-2,17,-2.0
COc1ccc(-n2c(SCC(=O)NCc3ccco3)nnc2-c2c[nH]c3ccccc23)cc1,-3,0.4,0.7%,-5,-10,-3.3
CCN(CC(N)=O)S(=O)(=O)c1ccc(Br)cc1,5,-0.1,nt,-5,-3,-0.8
Cc1cnc(C(=O)OCC(=O)Nc2ccc(OCc3ccccc3)cc2)cn1,-1,-0.4,-1.2%,4,-13,3.0
Cc1nn(CC(=O)N2CCCCC2)c(=O)c2nn(-c3ccccc3)c(C)c12,0,0.1,-0.5%,-7,4,-3.1
CCCn1nc([N+](=O)[O-])c(C(C#N)c2nc3ccccc3s2)c(Cl)c1=O (stereo unspecified),-29,-0.5,?,-19,0,-4.2

Marked active in Six1-Eya2 blk (from the list above):
Molecule	Six1-Eya2 blk	PINK1 modulator	D2 PAM	TRPML1 inh	D2 ag
Cc1ccc(NC(=S)c2nc3ccccc3[nH]2)cc1	-81*	29%	12	0	-4.3

Ordered by SMILES length (lowest first): part of the list above
Molecule,Six1-Eya2 blk,TRPML1 ag,PINK1 modulator,D2 PAM,TRPML1 inh,D2 ag
NN=C(c1ccccc1)c1ccccc1,3,-0.8,-2.0%,-5,-8,-2.8
O=c1[nH]nc(-c2cccs2)c2ccccc12,-8,1.9,-1.4%,-5,-24,3.2
COc1cc(/C=N/NC(=O)/C(=C/c2ccccc2)CCO)ccc1O,-9,1.1,0.2%,-30,8,-0.3

(cont.)
Molecule,Six1-Eya2 blk,TRPML1 ag,PINK1 modulator,D2 PAM,TRPML1 inh,D2 ag
CCOC(=O)C(=O)NNc1ccccc1C,7,-0.1,-0.5%,0,8,-0.1
CCCN(CC1CC1)C(=S)Nc1ccc(C(C)=O)cc1,3,-0.2,0.2%,-7,32,-3.1
N#Cc1ccsc1NC(=O)CCN1CCN(C(c2ccccc2)c2ccccc2)CC1,-16,0.0,-1.8%,-13,?,-3.6
COCCn1c(SCC(=O)NCC2CCCO2)nc2c([nH]c3ccccc32)c1=O (stereo unspecified),3,-0.4,6.5%,-12,20,-4.3
Cc1cccc(NC(=O)C2CCN(S(=O)(=O)c3cccc4cccnc34)CC2)c1,-1,0.8,1.9%,-5,11,1.2
COc1ccc(S(=O)(=O)N2CCN(C(=O)c3cc4c(s3)CCC4)CC2)cc1,?,-0.6,0.4%,5,-5,0.8
CC(C)[C@H](NC(=O)c1ccccc1)C(=O)Nc1cccc(S(=O)(=O)N2CCOCC2)c1,10,0.4,2.8%,3,3,-1.7
Cc1cccc(N2C(=O)CC(n3ccnc3)C2=O)c1C (stereo unspecified),4,0.2,-0.3%,-8,3,-19
Cc1ccc(C)c(CN2CCC(CNC(=O)CCc3nnc4ccc(N5CCCCC5)nn34)CC2)c1,-3,-1.2,0.0%,-15,23,-7.4
Cc1onc(-c2ccccc2Cl)c1C(=O)Nc1nnc(-c2cccc([N+](=O)[O-])c2)s1,-10,5.2,10%,-1,-17,1.2
CC(=O)Oc1cc2oc(=O)c3c(c2cc1Cl)CCC3,2,0.6,nt,-9,16,1.0
c1cnc2nc3c4ccccc4c4ccccc4c3nc2c1,?,1.7,2.0%,-2,29,3.8
COc1ccc(NC(=O)Cn2cnc3c(oc4nc5c(cc43)COC(C)(C)C5)c2=O)cc1,12,-0.3,-0.6%,-6,-11,-6.8
CN1CCC[C@@H]1CCO[C@](C)(c1ccccc1)c1ccc(Cl)cc1,-5,1.5,-0.3%,nt,14,nt
CCCc1cc(=O)[nH]c(NCc2ccc(Cl)cc2)n1,-1,1.8,2.6%[38.3 µM],-15,9,-3.6
Cc1ccccc1Oc1ncnc(N)c1[N+](=O)[O-],-9,-1.3,0.2%,-23,-1,-0.8
CNC(=S)N1CCc2sccc2C1C (stereo unspecified),-2,0.6,0.3%,-4,2,0.8
N/C(=N\OS(=O)(=O)c1ccc(Cl)cc1)c1ccccn1,?,0.1,14%,-6,-5,2.0
CCN(CC)C(=O)C(=O)c1cccn1-c1cccc(OC)c1C#N,7,-0.1,1.0%,-1,-3,-3.8
Cc1cc(C)cc(N(C(=O)c2snc(C(N)=O)c2N)C(C(=O)NCC2CCCO2)c2cccs2)c1 (stereo unspecified),-5,-0.4,-1.6%,-6,2,-15
CCS(=O)(=O)c1nc(S(=O)(=O)c2ccc(C)cc2)c(N2CCC(O)CC2)s1,12,-0.4,-0.1%,-5,-14,-0.7
